# Choline anaer gr – growth inhibitors of anaerobic choline-fed gram-negatives, minimal medium, absorbance; calls only; 55,000 compounds, 0.2% hits; AID 1963822, 2024; Gram-negative bacterium anaerobic choline minimal medium; stronger effect = lower value; many inactives read as strong as hits in the columns shown;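 active means growth z-score on choline under -2 at 7 or 20 h with little or no fall on glycerol, limits in tiers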;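 further: stock transfer was 300 nL into about 50 µL; the organism is E. coli; final concentration not given here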
# Choline anaer gr early – also measured in Choline anaer gr; calls as there; z-score; measured here: choline growth z-score, timepoint 1;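 score of optical density at 7 h as mean of two plates; lower means less growth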
# The depositor's hits bear a star; i = inactive; & = joins results of further samples. The list is partial, so the mix of outcomes need not match the whole.
SMILES,Choline anaer gr,Choline anaer gr early
CCC1Cn2c(C(=O)NC3CCCC3)cc3c(Cl)ccc(c32)O1 (stereo unspecified),i,0
CCn1c(-c2nnc(SCC(=O)NC(C)c3nc4ccccc4[nH]3)o2)cc2ccccc21 (stereo unspecified),i,-1.1
COc1ccc(OC)c(S(=O)(=O)Nc2ccc(Sc3cc(C)nc4nc(C)nn34)cc2)c1,i,-0.43
C=CCn1c(SCc2cccc(OC)c2)nc2c(-c3ccccc3)cn(C)c2c1=O,i,3
Cc1nc(N2CCC(C(N)=O)CC2)nc2c1C(=O)CC(C)C2 (stereo unspecified),i,1.1
O=C(NC(NC(=S)Nc1ccc(F)c([N+](=O)[O-])c1)C(Cl)(Cl)Cl)C(c1ccccc1)c1ccccc1 (stereo unspecified),i,0.22
COC(=O)c1ccc(NC(=O)Cn2cnc3nc(N4CCCC4)ncc3c2=O)cc1,i,0.27
COc1ccc2c(c1)c(CN1CCC(C(=O)NCC3CCCO3)CC1)cn2C (stereo unspecified),i,0.04
CN1CCN(S(=O)(=O)c2ccc3c(c2)C(C)(C)CN3CC(=O)N2CCCC2)CC1,i,0.91
O=C(NCC1CCCCC1)c1nc[nH]c1C(=O)NCc1ccccc1,i,0.51
COCCNC(=O)CN1CCN(c2cc(C(=O)O)c3cc(NC(=O)C4CC4)ccc3n2)CC1,i,-0.53
O=C(NCCc1cccs1)c1cc2cn(C3CC3)cc2s1,i,0.89
CCCn1c(=O)c2ccc(Cl)cc2n2c(=O)n(CC(=O)c3c(C)[nH]c4ccccc34)nc12,i,-1.8
Cc1ccc(-c2nc(N)n(C(=O)c3ccc(C(C)(C)C)cc3)n2)cc1C,i,1.1
Cc1ccc2c(c1)cc(C(=O)N1CCOCC1)n2C,i,-1.3
Cc1cc(-c2c(C)sc(C)c2S(=O)(=O)Nc2ccc(C)c(C)c2)n[nH]1,i,1.5
CC1CN(C(=O)CCC(=O)NCc2cccc(Cl)c2)c2ccccc2S1 (stereo unspecified),i,1
O=C(Nc1ccc2c(c1)OCCO2)C1CCN(c2cc(C(=O)N3CCCCC3)ccn2)CC1,i,-0.85
O=C(c1[nH]nc2c1CCc1ccccc1-2)N1CCC(CCN2CCOCC2)CC1,i,0.65
CC1=C(C(=O)NCc2ccc(F)cc2)C2(CCCCC2)OC1=O,i,0.05
COc1ccc(NC(=O)c2nn(C)c3c2CCc2sccc2-3)c(OC)c1,i,1.4
CCc1noc(-c2c(S(=O)(=O)NC3CCCC3)c(C)n(C)c2C)n1,i,1.1
Cc1ccc2c(c1)N(CCCC(=O)Nc1ccccc1F)C(=O)CO2,i,0.42
CC1(C)C(=O)N(CC(=O)Nc2nccs2)c2ccccc21,i,-0.96
O=C(Nc1nnc(SCc2cc(=O)n3ccccc3n2)s1)c1ccc(Cl)cc1,i,-0.28

# Ordered by count of non-hydrogen atoms (lowest first): part of the list above.
SMILES,Choline anaer gr,Choline anaer gr early
Cc1ccc2c(c1)cc(C(=O)N1CCOCC1)n2C,i,-1.3
O=C(NCCc1cccs1)c1cc2cn(C3CC3)cc2s1,i,0.89
Cc1nc(N2CCC(C(N)=O)CC2)nc2c1C(=O)CC(C)C2 (stereo unspecified),i,1.1
CCC1Cn2c(C(=O)NC3CCCC3)cc3c(Cl)ccc(c32)O1 (stereo unspecified),i,0
CCc1noc(-c2c(S(=O)(=O)NC3CCCC3)c(C)n(C)c2C)n1,i,1.1
Cc1ccc2c(c1)N(CCCC(=O)Nc1ccccc1F)C(=O)CO2,i,0.42
CC1CN(C(=O)CCC(=O)NCc2cccc(Cl)c2)c2ccccc2S1 (stereo unspecified),i,1
O=C(Nc1nnc(SCc2cc(=O)n3ccccc3n2)s1)c1ccc(Cl)cc1,i,-0.28
O=C(c1[nH]nc2c1CCc1ccccc1-2)N1CCC(CCN2CCOCC2)CC1,i,0.65
C=CCn1c(SCc2cccc(OC)c2)nc2c(-c3ccccc3)cn(C)c2c1=O,i,3
CCn1c(-c2nnc(SCC(=O)NC(C)c3nc4ccccc4[nH]3)o2)cc2ccccc21 (stereo unspecified),i,-1.1
COCCNC(=O)CN1CCN(c2cc(C(=O)O)c3cc(NC(=O)C4CC4)ccc3n2)CC1,i,-0.53
O=C(NC(NC(=S)Nc1ccc(F)c([N+](=O)[O-])c1)C(Cl)(Cl)Cl)C(c1ccccc1)c1ccccc1 (stereo unspecified),i,0.22

# Additional results.
SMILES,Choline anaer gr,Choline anaer gr early
C=CC[N@@+]12CC[C@]34c5ccccc5N5/C=C6\C7N(/C=C(\C53)[C@@H](C[C@@H]41)/C(=C/CO)C2)c1ccccc1[C@@]71CC[N@@+]2(CC=C)C/C(=C\CO)[C@@H]6C[C@@H]12 (stereo partly specified),i,0.62
COc1ccc(-c2nn3c(NCCCN4CCOCC4)cc(C)nc3c2C)cc1OC,i,-0.24
C1CCC(NC(=NC2C3CC4CC(C3)CC2C4)N2CCOCC2)CC1 (stereo unspecified),i,0.65
CCOC(=O)C1CCN(c2nnc(Nc3ccc(C)cc3)c3ccccc23)CC1,i,-2.1
Cn1cccc1C(=O)C(=O)N1CCCc2ccccc21,i,-0.23
CC1CCCN(c2nn3c(C(=O)NCCc4c[nH]c5ccccc45)cc(=O)nc3s2)C1 (stereo unspecified),i,0.68
CC(C)c1cc(Nc2ccc(N(C)C)cc2)n2nc(-c3cccnc3)nc2n1,i,-1.2
O=C(NC1CCN(Cc2ccccc2)CC1)C1CCCN(c2ccnc(-c3ccc(F)cc3)n2)C1 (stereo unspecified),i,-0.38
Cc1csc(-c2cc(S(=O)(=O)NC3CCCCCC3)c(C)s2)n1,i,1.8
O=C(NC1CCCCC1)C1CCCN(c2ncnc3c2nc2n3CCCCC2)C1 (stereo unspecified),i,0.28
O=S(=O)(Nc1ccc(F)c(F)c1)c1ccccc1-c1nc(-c2ccccc2)no1,i,-1.8
Cn1c(C(=O)NCCN2CCOCC2)cc2c(=O)oc3ccccc3c21,i,-0.29
Cc1sc(-c2noc(C(=O)N3CCOCC3)n2)cc1S(=O)(=O)NC1CC1,i,0.1
O=C(Nc1cccc(Br)c1)C1CCCN(C(=O)C2Sc3ccccc3NC2=O)C1 (stereo unspecified),i,0.01
CCSc1nc2ccc(NS(=O)(=O)c3ccccc3Cl)cc2s1,i,0.37
O=C(Cc1noc2ccccc12)Nc1nc2ccccc2s1,i,1.1
CCCNc1nc(C)nc2oc(C)c(C(=O)OCC)c12,i,-1.1
COc1ccc2c(c1)NC1(CCN(C(=O)Nc3cccc(Br)c3)CC1)c1cccn1-2,i,0.44
Cc1ccc(NS(=O)(=O)c2cn(C)c(C)n2)cc1F,i,0.46
Cc1ccc(CSc2nnc3n(CC(C)C)c(=O)c4cc(C)ccc4n23)cc1,i,0.46
COc1ccc(C2CC(=O)N(c3ccccc3)C(=O)C2)cc1,i,-0.08
Cc1c(C(=O)O)sc2ncnc(NC3CCCC3)c12,i,0.94
CC(C)n1cnc(S(=O)(=O)N2CCC(C(=O)N3CCc4ccccc43)CC2)c1,i,-0.72
O=C(Nc1cccc(Br)c1)C1CCN(c2cc(C(=O)N3CCCC3)ccn2)CC1,i,1.1
CC(C)c1ccc(S(=O)(=O)N2CCC(c3nc(-c4ccc(Br)cc4)no3)CC2)cc1,i,-0.33
# Other structures follow:
SMILES,Choline anaer gr,Choline anaer gr early
Cn1c(=O)c2ccc(C(=O)NC3CCCCC3)cc2n2c(=O)n(CC(=O)NC3CCCC3)nc12,i,-0.4
CC(C)OC1=NS(=O)(=O)c2ccccc21,i,-0.02
CCCCCC(=O)/C=C/[C@@H]1[C@@H](C/C=C\CCCC(=O)O)[C@@H](O)C[C@H]1O,i,0.45
CC(C)C1N=C2c3ccccc3N=C(SCC(=O)NCCc3ccc(S(N)(=O)=O)cc3)N2C1=O (stereo unspecified),i,-0.31
CC(C)(NC(=O)C1CCCO1)c1nc2c(c(C(N)=O)n1)OCCO2 (stereo unspecified),i,0.34
O=c1n(Cc2ccccc2Cl)nc2c(S(=O)(=O)N3CCOCC3)cccn12,i,0.28
COc1ccc2c(c1)c(/C=C/c1nc3ccccc3c(=O)n1-c1ccccc1)c(C)n2C,i,-0.7
CCNc1cc(C)nc(N2CCN(C(=O)C(C)(C)C)CC2)n1,i,0.28
Cc1cccc(CSc2nnc3n(C)c(=O)c4sccc4n23)c1,i,0.12
O=C(c1cnn2c(C(F)F)cc(C3CC3)nc12)N1CCCC1c1ccc(Cl)cc1 (stereo unspecified),i,-1
CC(Oc1ccccc1)c1nc(Cn2cnc(S(=O)(=O)N3CCCCC3)c2)no1 (stereo unspecified),i,-0.91
O=C(CN1C(=O)COc2ccccc21)Nc1cccc2nsnc12,i,0.92
CCOc1cc(CN2CCCC2c2cc(C)no2)ccc1O (stereo unspecified),i,-0.21
CCCNC(=O)C1CCN(Cc2cn(C)c3ccc(Cl)cc23)CC1,i,-0.6
O=C(NCc1ccc(Br)cc1)C1CCN(c2ccnc(-c3ccccc3)n2)CC1,i,1.5
Cc1ccc2nc(-n3nc(C)c4c3NC(=O)CC4c3ccc(C(C)C)cc3)sc2c1 (stereo unspecified),i,2.1
Cc1nn(-c2ccc(N3CCCCC3)nn2)c(C)c1CCC(=O)N1CCN(c2ncccn2)CC1,i,-0.59
Cn1cnc2c(=O)oc3ccc(S(=O)(=O)N4CCN(c5ccccn5)CC4)cc3c21,i,1.5
CN1c2cc(F)ccc2C(=O)NC12CCN(C(=O)Nc1ccc3c(c1)OCCO3)CC2,i,-1.6
COc1cc(NC(=O)c2cnc(N(C)C)nc2C)cc(OC)c1,i,-0.26
CC(C(=O)O)c1cccc(C(=O)c2ccccc2)c1 (stereo unspecified),i,-0.29&0.48&0.23
Cc1c(-c2nc(-c3ccccn3)no2)oc2ccc(S(=O)(=O)N3CCSCC3)cc12,i,0.09
O=C(NCc1csc(-c2ccccc2)n1)[C@H]1CSCN1C(=O)c1cccc(Br)c1,i,1.9
Cc1ccc(N2CC(C(=O)Nc3cccc(-c4noc(C5CCC5)n4)c3)CC2=O)cc1C (stereo unspecified),i,0.86
O=C(CSCc1cnn(-c2ccccc2)c1-n1cccc1)N1CCN(c2ccccn2)CC1,i,-0.83
# Remaining list, next part.
SMILES,Choline anaer gr,Choline anaer gr early
CCCC(=O)N1CCN(c2nc3ccccc3n(CC)c2=O)CC1,i,0.2
CCOc1ccc(OCC)c(NC(=O)C2CCN(C(=O)c3cccn3-c3cccnc3)CC2)c1,i,0.5
O=C(Nc1cc(F)ccc1F)c1ccc(S(=O)(=O)c2ccc(Br)cc2)nc1,i,0.67
COc1ccc(-c2noc(-c3ccc(OCC(=O)N4CCOCC4)cc3)n2)cc1,i,-0.62
CC(C)(C)C1CCc2onc(C(=O)O)c2C1 (stereo unspecified),i,0.85
O=C1COc2ccc(S(=O)(=O)N3CCN(C(=O)NCc4ccccc4)CC3)cc2N1,i,-0.35
CCS(=O)(=O)N1CCN(c2cc(-c3ccc(C)cc3)ncn2)CC1,i,-0.21
O=C(NCCCN1CCCc2ccccc21)C1CCc2nc(N3CCOCC3)ncc2C1 (stereo unspecified),i,0.45
Cc1cccc(-c2ccc(N3CCC(C(=O)N4CCC(N5CCCCC5)CC4)CC3)nn2)c1,i,-0.02
Cc1ccc(C2CC(=O)Nc3c2cnn3-c2nc3ccccc3s2)cc1 (stereo unspecified),i,0.29
O=C(CSc1nc2ccccc2c2nc(CCc3c[nH]c4ccccc34)nn12)c1ccccc1,i,0.44
Cc1nn(-c2ccc(F)cc2)c2sc(C(=O)Nc3ccccc3)cc12,i,0.7
COc1ccc(/C=C/c2nn3c(COc4ccc(OC)cc4)nnc3s2)cc1,i,-2.4
O=C(CN1C(=O)c2ccccc2C1=O)Nc1ccc2c(c1)C(=O)Nc1cc(Cl)ccc1O2,i,1.1
COc1cc(OC)cc(-c2noc(-c3nn(-c4ccc(C)c(C)c4)ccc3=O)n2)c1,i,-0.39
CCOC(=O)c1c(-c2ccccc2)n2c3c(cccc13)SCC2,i,-1.1
Cc1noc2c1C(c1cccc(Cl)c1)C1=C(CC(C)(C)CC1=O)N2 (stereo unspecified),i,-0.03
O=C(c1cc(-c2cccnc2)on1)N1CC=C(c2ccccc2)CC1,i,0.47
O=C1C(=O)N(C2CCN(C(=O)c3ccc(Cl)cc3)CC2)CCN1Cc1cccc(F)c1,i,-0.77
C[C@@H]1CC[C@H]2[C@@H](C)C(O)O[C@@H]3OC4(C)CC[C@@H]1[C@]32OO4 (stereo partly specified),i,-2.4
Nc1ccc(S(=O)(=O)N2CCN(c3ccc(F)cc3)CC2)cc1S(N)(=O)=O,i,0.12
CCOC(=O)C1CCN(C(=O)CN2CCN(Cc3ccc(C)cc3)C(=O)C2=O)CC1,i,-1.2
O=C(NCCS(=O)(=O)N1CCN(c2ccccc2F)CC1)C1c2ccccc2Oc2ccccc21,i,0.89
CCc1nc2sc(C(C)C)nn2c1S(=O)(=O)N1CCSCC1,i,0.26
CC(C)Cn1c(=O)c2sccc2n2c(CCC(=O)NCCC3=CCCCC3)nnc12,i,0.56

# Exported with bars between the fields: entries from further up
SMILES | Choline anaer gr | Choline anaer gr early
CCc1nc2sc(C(C)C)nn2c1S(=O)(=O)N1CCSCC1 | i | 0.26
O=C(NCCCN1CCCc2ccccc21)C1CCc2nc(N3CCOCC3)ncc2C1 (stereo unspecified) | i | 0.45

# The list goes on:
SMILES,Choline anaer gr,Choline anaer gr early
Cc1ccc(NC(=O)N2CCCC(CCC(=O)N3CCN(C)CC3)C2)cc1 (stereo unspecified),i,-1.1
COCCNC(=O)CN1c2ccc(Br)cc2-c2ccccc2S1(=O)=O,i,-1
CCC(=O)Nc1nc2ccc(NC(=O)C3CC3)cc2s1,i,0.74
COc1ccc(OC)c(NC(=O)C2CCCN2S(=O)(=O)c2cc3c(cc2Cl)NC(=O)CO3)c1 (stereo unspecified),i,0.01
CCC(CC)C(=O)Nc1ccccc1SCc1cc(=O)n2cc(Cl)ccc2n1,i,0.54
COCCCNC(=O)C1=C(C)C(=O)OC12CCCCC2,i,0.59
O=C(c1c(F)cccc1F)N1CCN=C1N1CCCC1,i,-0.69
Cc1cc(C)cc(NS(=O)(=O)c2c(C)nc3sc4ccccc4n3c2=O)c1,i,-0.18
O=S(=O)(c1cc(F)ccc1F)N1CC(OCc2ccc(F)cc2Cl)C1,i,-1.1
Cc1ccc2[nH]cc(CCN3CC(C(=O)N4CCN(c5ccccc5)CC4)CC3=O)c2c1 (stereo unspecified),i,0.67

# From PubChem BioAssay
